RanGTP-Impb inh – disruptors of Ran-importin-beta complex formation – biochemical, FRET, CFP-Ran, YFP-importin-beta, homogeneous, primary screen; cell-free CFP-Ran/YFP-importin-beta FRET ratio; inhibition, % (concentration not given with the values); 300,000 compounds, 1.1% hits; AID 2216;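 active = most replicates above 15%; inconclusive = exactly half above 15%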;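 note: 0% = DMSO wells and 100% = Ran loaded with GDP instead of GTP; wells of about 40 µL received 100 nL stock; the first replicate is given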
LANA-H2B inh – blocks KSHV LANA binding to histone H2A/H2B. cell-free LANA-H2A/H2B peptide, fluorescence polarization. Q9QR71. AID 2629. 320,000 compounds, 0.6% hits. inhibition, % (test concentration not listed); in the data active = inhibition mostly above about 10%, no sharp cut-off; inactive = mostly below about 6.7%;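 note: stock transfer was 7.5 nL into about 10 µL; 0% = median of vehicle wells and 100% = median of positive control wells; one replicate is shown; the record names a cut of 25% in any replicate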
Target sequence (Q9QR71 whole entry, looked up): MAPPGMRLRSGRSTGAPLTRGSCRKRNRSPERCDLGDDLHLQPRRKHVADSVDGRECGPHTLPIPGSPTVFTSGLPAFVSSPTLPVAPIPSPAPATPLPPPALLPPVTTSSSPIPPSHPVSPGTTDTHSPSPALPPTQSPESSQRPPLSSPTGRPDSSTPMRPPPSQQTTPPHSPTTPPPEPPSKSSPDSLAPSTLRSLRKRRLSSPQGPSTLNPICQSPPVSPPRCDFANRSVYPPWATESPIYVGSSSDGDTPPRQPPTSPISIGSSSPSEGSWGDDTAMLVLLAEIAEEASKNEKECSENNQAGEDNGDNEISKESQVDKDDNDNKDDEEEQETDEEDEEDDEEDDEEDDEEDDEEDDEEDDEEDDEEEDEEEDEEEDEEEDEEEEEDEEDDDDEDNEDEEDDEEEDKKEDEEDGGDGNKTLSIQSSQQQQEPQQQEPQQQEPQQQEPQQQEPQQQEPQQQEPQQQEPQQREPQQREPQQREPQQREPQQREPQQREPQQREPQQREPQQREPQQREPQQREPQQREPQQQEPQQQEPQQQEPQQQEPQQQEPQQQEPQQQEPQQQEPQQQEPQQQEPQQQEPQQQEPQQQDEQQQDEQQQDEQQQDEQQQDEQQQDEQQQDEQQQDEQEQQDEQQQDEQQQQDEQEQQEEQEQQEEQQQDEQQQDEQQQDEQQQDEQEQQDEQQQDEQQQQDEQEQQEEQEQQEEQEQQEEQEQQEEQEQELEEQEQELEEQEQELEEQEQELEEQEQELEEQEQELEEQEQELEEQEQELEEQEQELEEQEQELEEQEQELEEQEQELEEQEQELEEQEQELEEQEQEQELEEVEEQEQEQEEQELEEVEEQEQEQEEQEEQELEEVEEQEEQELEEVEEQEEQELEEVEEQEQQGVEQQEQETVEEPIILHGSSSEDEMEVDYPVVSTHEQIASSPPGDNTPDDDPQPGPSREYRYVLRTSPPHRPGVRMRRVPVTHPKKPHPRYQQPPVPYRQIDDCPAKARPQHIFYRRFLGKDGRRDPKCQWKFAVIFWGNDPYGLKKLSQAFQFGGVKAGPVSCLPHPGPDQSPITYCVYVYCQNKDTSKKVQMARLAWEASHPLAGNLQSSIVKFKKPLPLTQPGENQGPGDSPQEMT
MLL AF4-AF9 inh – blocks AF4 peptide binding to human AF9. AlphaScreen, biotin-AF4 peptide binding to FLAG-AF9. inhibition, % at 10 µM. 350,000 compounds, 0.47% hits. P42568;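 active = every replicate reaching a set inhibition limit, whatever the replicate mean, cut at about 25% in these data; inconclusive = mean inhibition reaches that limit but some replicates miss it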;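 note: 0% = plate neutral control median and 100% = total signal loss; the record names both 10 and 1 µM as test concentration; the first replicate is given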
A1 inh – inhibitors of the anti-apoptotic protein A1, read as caspase activation; 330,000 compounds, 0.066% hits; caspase activation, % (no concentration beside the values); MEF A1-2A-BIM cells, Caspase-Glo 3/7 luminescence, 3 h; percent of clofoctol response, vehicle zero; AID 2462;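 active = over half of replicate activation scores above 10%, or exactly half above 10 with the replicate mean above 10; inconclusive = replicate mean below 10 yet half the replicates above 10; inactive = over half of replicates below 10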;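 note: wells of about 30 µL received 50 nL stock; many hits fall short of the cut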
Calb FLC – C. albicans growth modulation with fluconazole | C. albicans CaCi-2 (fluconazole-resistant clinical isolate) + fluconazole, Alamar Blue growth, 48 h | growth inhibition, % (concentration not given with the values) | 300,000 compounds, 0.57% hits;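 active = most replicates above 75%; inconclusive = exactly half above 75%; inactive = most below 75%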;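 note: all wells also contain fluconazole at 8 µg/ml as a sub-toxic cotreatment; 0% = median of DMSO wells and 100% = median of geldanamycin control wells; wells of about 8 µL received 7.5 nL stock; the first replicate is given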
T cruzi inh – blocks replication of Trypanosoma cruzi. T. cruzi beta-gal in NIH3T3, luminescence, 90 h. inhibition, % (no concentration beside the values). 300,000 compounds, 1.4% hits. AID 1885;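 active = mean inhibition across valid replicates above about 55%, limit read from the data; inconclusive = mean below that limit but half or more replicates reach it; inactive = mean below it, under half of replicates reach it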;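 note: signal also drops with host cell toxicity which is not excluded here; 0% = plate median of DMSO wells and 100% = zero luminescence signal; higher percent means less beta-gal luminescence so fewer parasites; stock transfer was 50 nL into about 50 µL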
Vif TR-FRET – inhibitors of Vif binding to APOBEC3G peptide, primary screen, biochemical, TR-FRET, GST-Vif 1-94, biotin-A3G peptide, dose response retest (AID 1117319); TR-FRET GST-Vif / biotin-A3G peptide binding; higher % means a stronger effect; test concentration not given here; strong numbers were not always called active; inhibition, %, or IC50 in µM where a hit was titrated; 260,000 compounds, 0.57% hits;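 active = above the screen mean plus three standard deviations and confirmed in dose response; inconclusive = results disagree or hit not tested in dose response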;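 note: Vif residues 1-94 fused to GST binding biotinylated APOBEC3G peptide 110-148; 0% = full assay without inhibitor and 100% = GST in place of GST-Vif; retest series ran down from 100 µM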
Beta apoptosis – beta cell apoptosis inhibition. INS-1E cytokine-induced death, ATP luminescence, 48 h; percent of positive-control rescue, neutral wells zero. protection from apoptosis, % (concentration not given with the values). 300,000 compounds, 0.8% hits. AID 435005;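 active = all replicates at 75% or more, or half of them and the mean; inconclusive = half reach 75% but not the mean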;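 note: 0% = cytokine-treated negative control wells and 100% = positive control rescue; higher means more ATP so stronger rescue from cytokine killing; wells of about 40 µL received 100 nL stock; the first replicate is given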
The depositor's hits bear a star; ? = inconclusive; · = not tested or not shown; & = joins results of further samples.

SMILES	RanGTP-Impb inh	LANA-H2B inh	MLL AF4-AF9 inh	A1 inh	Calb FLC	T cruzi inh	Vif TR-FRET	Beta apoptosis
O=C(CNC(=O)c1ccccn1)N=Nc1c(O)[nH]c2ccccc12	5.2	-0.7	4.3	-0.1	16	3	·	3
CN1CC=C2C(C#N)=C(N)C(C#N)(C#N)C(CCc3ccccc3)C2C1 (stereo not drawn)	-2.2	2.4	·	1.1	-5	2	?	·
CC1CN(CC(O)COC(c2ccccc2)c2ccccc2)CC(C)O1 (stereo not drawn)	-0.3	4.9	1.0	0.4	2	8	·	-1
Cc1cccc(NC(=O)c2c(O)c3ccccc3n(C)c2=O)c1	0.8	-2.4	0.1	-0.1	0	-8	·	·
Cc1ccc(C)c2sc(NC(=O)c3ccc(N4CCCCC4)c([N+](=O)[O-])c3)nc12	8.7	-8.8	6.3	-1.0	-5	0	7%	·
COc1cc([N+](=O)[O-])cc(/C=N/NC(=O)Cn2nc(C)cc2C)c1O	4.9	-3.3	-6.6	0.5	9	-6	·	-4
O=C(COC(=O)CC1CC2CCC1C2)NCc1ccc(Cl)cc1 (stereo not drawn)	·	1.3	-1.8	2.3	·	·	-6%	4
CCn1c(C(C#N)/C(=N\S(=O)(=O)c2cccs2)c2ccccc2)nc2ccccc21 (stereo not drawn)	5.5	-2.5	·	-0.2	2	-2	?	0
Cc1nc(NC(=O)c2c(-c3ccccc3Cl)noc2C)sc1C	5.9	-3.3	3.9	0.5	-14	-6	0%	3
CCSc1nnc(-c2cccnc2)n1-c1ccc(Cl)c(C)c1	8.4	2.8	6.5	-0.2	9	2	23%	-7
Cc1ccc(NC(=O)COC(=O)c2ccco2)cc1S(=O)(=O)N1CCOCC1	·	-5.1	-2.5	-0.9	·	·	·	1
Cc1ccc(C(c2nnnn2C(C)(C)C)N2CCC(C)CC2)cc1 (stereo not drawn)	3.1	0.5	·	0.5	-14	18	-8%	-1
O=C(N/N=C/c1ccco1)c1cc(-c2cccc(Br)c2)nc2ccccc12	-3.2	-6.4	·	3.2	2	2	-4%	17
Nc1nnn(CC(=O)N/N=C/c2ccccc2Cl)n1	0.7	1.6	-1.9	1.4	-1	12	-9%	-5
CCOC(=O)c1c(C)[nH]c2cc(Br)c(OC)cc12	-2.0	1.5	·	?	-3	·	31%	-3
Cc1nn(-c2ccccc2)c(Cl)c1C(=O)NNC(=O)c1ccccc1O	·	0.1	-2.8	-2.0	·	·	-6%	43
CCN(CC)C(=O)c1sc2nc(-c3ccc(OC)cc3)cn2c1C	1.2	7.0	·	0.6	-3	-12	?	1
COCCNC(=O)Cn1nc(C)c2ccccc2c1=O	1.7	0.8	·	-0.8	-5	-10	2%	0
CC1CCCCC12NC(=O)N(CC(=O)OCc1c(F)cccc1Cl)C2=O (stereo not drawn)	·	-0.5	3.3	-0.3	·	·	0%	-7
O=S(=O)(Nc1ccc(S(=O)(=O)N2CCCCCC2)cc1)c1cccs1	-2.6	-4.9	0.5	1.7	12	-11	4%	4
COCCCNC(=O)CSC1=Nc2ccccc2C2=NC(CC(=O)NCc3ccccc3)C(=O)N12 (stereo not drawn)	?	1.3	·	0.5	-5	-1	6%	-7
Cc1oc2c(C)c3oc(=O)c(CC(=O)N[C@@H](CC(C)C)C(=O)N[C@@H](Cc4ccccc4)C(=O)O)c(C)c3cc2c1C	1.9	-8.2	-0.9	0.5	0	-2	·	-2
CC(C)(C)NC(=O)N1CCN(S(=O)(=O)c2ccc3c(c2)CCC3)CC1	·	0.5	-1.4	0.6	·	·	-3%	-5
COc1ccc(CCNC(=O)CC2COc3ccccc3O2)cc1OC (stereo not drawn)	4.3	-0.1	·	0.4	6	-10	11%	-6
Cc1cccc(NC(=O)CSCC(=O)N(C)Cc2c(F)cccc2Cl)c1	-3.3	1.3	-0.1	0.1	-4	3	3%	-7
Following part.
SMILES	RanGTP-Impb inh	LANA-H2B inh	MLL AF4-AF9 inh	A1 inh	Calb FLC	T cruzi inh	Vif TR-FRET	Beta apoptosis
COc1ccc(S(=O)(=O)N(CC(=O)NCc2ccco2)c2ccccc2)cc1	-3.7	-3.6	·	0.3	-2	-6	16%	-3
COc1ccc(C(=O)Nn2c(SCC(=O)N3CCC(C)CC3)nc3ccccc3c2=O)cc1	0.5	3.1	·	-1.0	?	0	0%&5%	16
Cc1nc2cc(NC(=O)c3ccc([N+](=O)[O-])s3)ccc2s1	1.3	0.4	0.7	-3.1	-9	44	5%	-3
COc1ccc(S(=O)(=O)NCc2ccccn2)c(Cl)c1Cl	-0.3	-1.0	·	0.7	9	-2	77%	-3
O=C(CNC(=O)c1ccccc1)NC1(C(=O)NC2CCCCC2)CCCCC1	1.9	-0.6	-1.4	0.4	-9	-11	-1%	-12
O=C(CCC(=O)N1CCOCC1)NCCc1ccccc1	·	-0.4	-0.7	0.3	·	·	-6%	-1
Cn1c(SCC(=O)Nc2ccc(N3CCOCC3)cc2)nnc1C(F)(F)F	·	-2.2	-0.6	1.0	·	·	·	-1
Cc1ccc(S(=O)(=O)Nc2cc(Cl)c(O)cc2C)cc1	0.0	0.4	·	0.9	-23	7	-2%	-4
CS(=O)(=O)N(CC(=O)NCc1ccncc1)C1CCCCC1	-2.5	4.4	-1.9	-0.8	-2	-5	7%	-4
NC(=S)Cc1ccccc1Cl	2.8	9.0	-1.2	0.1	15	-9	-5%	-6
CCC(=O)Oc1ccc2c(c1)OC1(OC(C)=O)OC(C)CC1=C2C (stereo not drawn)	1.3	-3.1	-2.3	1.4	0	-13	-2%	-3
COCCNC(=O)c1csc(Nc2cccc3ccccc23)n1	2.6	10	-0.7	-0.7	-20	-2	-1%	0
Cc1cc(O)c(NC(=O)c2cccc([N+](=O)[O-])c2)cc1C	5.3	-2.0	-2.1	-0.7	0	-11	-2%	0
CC(C)N1C(=S)SC(C)(C)C1n1oc(=O)n(-c2cccc(Cl)c2)c1=O (stereo not drawn)	?	-0.8	-0.2	2.4	28	4	-6%	-4
O=c1c2ccccc2cnn1Cc1cccc(Br)c1	-0.8	-2.0	-2.7	0.8	11	-10	-6%	-2
C=CCn1c(N)c(C(=O)OCC(C)C)c2nc3ccccc3nc21	?	·	·	·	0	-9	33%	·
CC(C)(C)CC(=O)Nc1nnc(SCC(=O)NC2CCCCC2)s1	0.7	-0.5	0.0	3.8	-4	3	·	4
Cc1c(Cl)cccc1N(CC(=O)NC(C)c1ccccc1)S(C)(=O)=O (stereo not drawn)	-3.9	-1.6	-14	1.4	2	-5	?	-5
COc1ccc(CCNC(=S)N2CCC(C(=O)c3ccc(F)cc3)CC2)cc1OC	6.9	4.2	3.8	-0.2	-7	10	3%	-2
Cc1ccc(C)c(N2CCN(C(=O)C3CCCCN3S(=O)(=O)c3ccc(F)cc3)CC2)c1 (stereo not drawn)	2.4	-1.9	3.9	-0.8	0	22	11%	1
O=C(CC1(O)C(=O)Nc2ccccc21)c1ccc(-n2cccc2)cc1 (stereo not drawn)	6.8	0.3	·	-2.4	-3	12	3%	-4
Cc1cccc(N2CCN(C(=O)c3oc4ccc(Br)cc4c3C)CC2)c1C	·	-5.7	0.4	-0.8	·	·	·	-5
COc1ccc(NC(=O)CCN2C(=O)c3ccncc3C2=O)cc1OC	2.8	-0.1	-2.0	0.1	-5	-5	4%	-2
Cc1c(Br)c([N+](=O)[O-])nn1CC(=O)Nc1ccc(CC#N)cc1	-0.6	-4.6	·	0.8	-1	44	8%	7
COc1ccc(/C=C(/CC(=O)Nc2ccc(C)cc2)c2nc3ccccc3s2)cc1	1.8	-0.4	3.9	0.3	4	8	·	7
(continued)
SMILES	RanGTP-Impb inh	LANA-H2B inh	MLL AF4-AF9 inh	A1 inh	Calb FLC	T cruzi inh	Vif TR-FRET	Beta apoptosis
COc1ccc(-c2nnc(N(C)C(=O)c3ccco3)s2)cc1OC	2.0	-3.9	-16	-0.2	0	1	·	1
O=S(=O)(c1ccc(Cl)cc1)N1CCCCCC1	2.5	5.1	-0.5	1.0	-13	6	4%	-2
Fc1cccc(Cl)c1Cn1nnc2c(NCc3ccncc3)ncnc21	-0.4	-0.8	0.1	0.6	-16	-7	31%	8
CCOC(=O)C1CCN(C(=O)CSc2ccc(Br)cc2)CC1	?	-1.5	-0.4	-0.2	33	1	0%	-3
CCCn1c(N)c(C(=O)CSc2nc(N)cc(=O)[nH]2)c(=O)n(C)c1=O	·	0.1	-3.3	0.2	·	·	-4%	-1
COC(=O)c1ccc(SC2CCCCC2)c([N+](=O)[O-])c1	5.1	-6.0	·	-0.1	-1	-14	9%	3
CC(O)c1cccc(NC(=O)C2CCCCC2)c1 (stereo not drawn)	-1.9	-0.7	-0.6	0.2	-3	-11	16%	-13
Cc1ccc(NC(=S)N(CCCN2CCCC2)Cc2cccn2Cc2ccc(Cl)cc2)cc1C	-19	-6.1	16	0.5	-4	39	-1%	27
Cc1cc(=O)oc2c(C)c(OCC(=O)N3CCN(c4ccccc4)CC3)ccc12	0.4	1.8	0.8	-0.1	6	13	·	1
Nc1ccc(CN2CCCCCC2)cc1	-3.2	0.9	·	1.2	2	2	·	0
COC(=O)c1ccc(NC(=O)CN2C(=O)CSC2=O)cc1	3.2	-6.1	·	-0.7	2	-17	9%	2
O=C(O)C1(P(=O)(c2ccc(Cl)cc2)c2ccc(Cl)cc2)CCCC1	3.6	-4.7	-3.0	0.9	5	-26	24%	0
Cc1[nH]nc(SCC(=O)N2CCC(C)CC2)c1[N+](=O)[O-]	4.5	-4.2	·	0.3	-3	-1	-8%	-8
C=CCSc1nc2c(c(=O)[nH]c(=O)n2C)n1Cc1ccc(C)cc1	1.6	0.0	-0.9	-0.4	-7	16	2%	6
CCOC(=O)c1c(NC(=O)CSc2nnc(Cc3ccccc3)o2)sc(C(C)=O)c1C	1.8	1.8	·	-0.8	0	1	-24%	3
COC(=O)N1[C@H](C)C=C[C@]1(Cc1ccccc1)C(=O)OC	-2.5	-0.7	2.4	0.2	-8	1	·	5
CC(C)c1ccc2c(c1)C1(NN=C(c3ccccc3)S1)C(=O)N2 (stereo not drawn)	2.3	8.9	·	-0.2	?	66*	28%	74
Cc1cc(C)c(NC(=O)COC(=O)CCc2ccc(S(=O)(=O)N3CCCCC3)cc2)c(C)c1	1.2	1.2	-1.7	1.4	?	-2	7%	-5
CN(C)S(=O)(=O)c1cc(NC(=O)CNCCN2CCOCC2)ccc1Cl	6.0	3.0	-2.6	0.2	-3	-10	·	-7
CC(C)COc1ccc(CN=C(N)N=C(N)N)cc1Cl	1.3	1.6	0.4	0.3	-38	44	·	3
Cn1cc(C(=O)NCCN2CCN(c3cccc(Cl)c3)CC2)c2c3ccccc3n(C)c2c1=O	4.8	-1.1	·	0.6	7	45	24%	4
Cc1cccc(Nc2nc(-c3ccccn3)cs2)n1	3.8	2.5	·	-9.7	-20	59*	1%	47
CC(=O)Nc1cccc(C2=CC(c3ccco3)n3ncnc3N2)c1 (stereo not drawn)	-133	30*	·	0.8	21	-1	9%	4
OCCC1CN(Cc2cc3c(cc2Cl)OCO3)CCN1C1CCCCC1 (stereo not drawn)	7.5	5.6	2.2	0.4	-24	-6	·	4
